Screens (PubChem)
CSC inhib = blocks cancer stem cells; cancer stem cell-like cells viability, luminescence; inhibition, % at 7.5 µM; 300,000 compounds, 1.1% hits; AID 2717;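 active = mean at 75% or more and at least half the replicates too; inconclusive = mean and replicates disagree; tested in HMLE shEcad cells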;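 note: 0% = median of negative and 100% = median of positive control wells; the first replicate is given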
Rce1 inhib = inhibitors of yeast Ras-converting enzyme. yeast membranes, quenched prenylated peptide cleavage fluorescence. calls only. AID 2563. 290,000 compounds, 0.27% hits;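 active = fall in fluorescence gain of 50% or more versus controls, with final raw signal at or below 3038400; inconclusive = same 50% fall but final raw signal above 3038400; inactive = fall in fluorescence gain under 50%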;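 note: plate controls were neutral control wells for no effect and wells lacking membranes for full effect; tested at 10 µM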
Target sequence (Q03530 whole entry, looked up): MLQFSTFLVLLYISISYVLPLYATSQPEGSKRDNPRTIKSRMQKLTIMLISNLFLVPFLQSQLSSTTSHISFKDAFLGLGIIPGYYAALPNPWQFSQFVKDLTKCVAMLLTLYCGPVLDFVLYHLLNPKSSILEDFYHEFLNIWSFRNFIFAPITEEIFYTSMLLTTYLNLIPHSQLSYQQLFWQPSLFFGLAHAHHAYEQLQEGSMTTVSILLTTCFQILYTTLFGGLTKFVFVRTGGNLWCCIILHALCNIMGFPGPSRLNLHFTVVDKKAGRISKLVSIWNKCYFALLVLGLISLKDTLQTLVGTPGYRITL
HIV Env fusion = inhibitors of HIV Env-mediated cell fusion; AID 651610; 360,000 compounds, 1.1% hits; HeLa-JRFL Env/CEM21 cell fusion, luciferase; inhibition, % at 12.3 µM;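 active = mean replicate inhibition score of at least 50 and every replicate individually at or above 50; inconclusive = only one of the two criteria met; inactive = mean below 50 and not all replicates reaching 50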;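 note: 0% = plate neutral controls and 100% = maraviroc near 300 nM; one replicate is shown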
eIF4H FP inh = inhibitors of RNA binding by human eIF4H. Q15056. eIF4H fluorescence polarization binding assay. inhibition, % at 35 µM. 290,000 compounds, 0.94% hits;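 active = 50% or more with normal probe brightness, or confirmed in later tests; inconclusive = above 50% with abnormal brightness, or retests that disagree; inactive = below 50% or failed in later tests; about a fifth of its hits are not listed in these tables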;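 note: calls also rest on retests at 20 µM and on dose response follow-up; 0% = protein and probe with vehicle and 100% = probe without protein; strong numbers were not always called active; many hits fall short of the cut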
PABP polyA inh = blocks human PABP binding to poly(A) RNA. P11940. fluorescence polarization. inhibition, % at 35 µM. 290,000 compounds, 1% hits. AID 2014;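 active = 50% or more with normal probe brightness, or confirmed in later tests; inconclusive = above 50% with abnormal brightness, or retests that disagree; inactive = below 50% or failed in later tests; about a fifth of its hits are not listed in these tables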;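 note: calls also rest on retests at 20 µM and on dose response follow-up; controls were probe without protein and protein plus probe with vehicle; some compounds called inactive have numbers as strong as hits; many hits fall short of the cut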
Target sequence (P11940 whole entry, looked up): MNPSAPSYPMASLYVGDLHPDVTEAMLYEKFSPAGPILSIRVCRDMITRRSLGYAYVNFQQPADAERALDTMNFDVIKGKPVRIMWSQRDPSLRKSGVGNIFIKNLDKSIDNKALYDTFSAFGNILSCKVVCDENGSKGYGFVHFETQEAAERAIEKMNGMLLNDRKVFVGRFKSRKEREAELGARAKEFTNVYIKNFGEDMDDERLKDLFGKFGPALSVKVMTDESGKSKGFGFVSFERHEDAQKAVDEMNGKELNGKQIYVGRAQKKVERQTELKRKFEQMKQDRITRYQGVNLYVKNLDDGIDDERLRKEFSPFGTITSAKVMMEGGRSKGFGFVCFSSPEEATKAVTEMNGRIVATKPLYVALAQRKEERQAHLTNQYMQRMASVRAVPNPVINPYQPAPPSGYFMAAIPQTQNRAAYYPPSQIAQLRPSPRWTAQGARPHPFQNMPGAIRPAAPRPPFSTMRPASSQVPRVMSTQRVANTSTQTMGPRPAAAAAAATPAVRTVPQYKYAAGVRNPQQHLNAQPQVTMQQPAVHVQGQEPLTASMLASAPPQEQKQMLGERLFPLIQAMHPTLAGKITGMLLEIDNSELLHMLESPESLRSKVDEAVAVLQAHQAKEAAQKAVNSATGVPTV
UUG fidelity = yeast start codon fidelity modulation. 350,000 compounds, 0.13% hits. activity score, % at 18.7 µM. AID 602363. S. cerevisiae UUG-firefly luciferase reporter, luminescence/redox ratio;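 active = replicate mean at a twofold rise or more, about +100% in these data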;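 note: firefly luciferase made from a UUG start codon reports start codon fidelity; reporter light over untreated wells divided by growth signal over untreated wells; some hits fall short of that in this replicate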
MT1-MMP act inh = MT1-MMP (human) activation inhibition; P50281; HT1080 RFP-PRO-GFP cells, GFP/RFP ratio fluorescence, overnight; percent of plate control window, DMSO zero; GFP/RFP ratio change, % at 20 µM; 360,000 compounds, 0.061% hits; AID 651647;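 active = GFP/RFP ratio change of at least 30% with cell ATP level not reduced by more than half and red fluorescence within 50% of control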; note: strong numbers were not always called active
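Assay system: HT1080 RFP-PRO-GFP cells | Dosing: 20 µM single dose, 1% DMSO | Incubation: Cells overnight before dosing, compound overnight, 37 °C, 5% CO2 | Evaluation: GFP/RFP fluorescence ratio | Control set: DMSO-only wells and HT1080 RFP-L50D-GFP cell wells as references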
eIF4H FP inh retest = recorded beside eIF4H FP inh, whose call it bears; inhibition, %; compound at 20 µM; confirmation average;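 mean of two retest wells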
PABP polyA inh retest = also measured in PABP polyA inh; calls as there; inhibition, %; compound at 20 µM; confirmation repeats;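 mean of two retest wells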
MT1-MMP act inh RFP = recorded beside MT1-MMP act inh, whose call it bears; RFP signal change, %; measured here: RFP expression control read;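 0 = vehicle wells; hits needed this value within 50% of zero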
* hit, by the source's call; i = inactive; u = inconclusive; x = not tested or not shown; + = active, no number.

SMILES	CSC inhib	Rce1 inhib	HIV Env fusion	eIF4H FP inh	PABP polyA inh	UUG fidelity	MT1-MMP act inh	MT1-MMP act inh RFP	others
Cc1cc(C(=O)CN2C(=O)NC3(CCCCC3C)C2=O)c(C)n1Cc1cccs1 (centres undefined)	0	i	-14	25	-7	0	4	4
CCc1nnc(N/N=C/c2ccc(N3CCC(C)CC3)c([N+](=O)[O-])c2)n1N	0	i	26	-7	-6	x	11	0
CCC1(CC)C(=O)NC(=S)N=C1N	x	x	-5	x	x	-30	-3	-6
CC(C)Cc1nc2c(nnn2Cc2ccccc2F)c(=O)[nH]1	-18	i	8	8	-4	x	2	0
C=CCn1c(SCC(=O)c2ccc(F)cc2)nnc1-c1ccc2c(c1)OCO2	-6	i	21	0	7	x	0	1
CCOc1ccc(S(=O)(=O)N/N=C2/CCCC(=O)C2)cc1	-3	i	-2	-2	2	x	2	4
COc1ccc(CCN(C)C(=O)CNC(=O)Cc2cccc3ccccc23)cc1OC	-2	i	7	-2	0	7	1	3
O=C(Nc1ccc([N+](=O)[O-])cc1)c1ccccc1F	15	i	-40	-6	10	-13	4	1
Cc1c(C(=O)N2CCN(Cc3cccs3)CC2)oc2ccccc12	9	x	7	x	x	-3	-4	-4
Cn1c(CNC(=O)c2ccc3c(c2)OCO3)nnc1SCC(=O)Nc1ccc(F)cc1	-6	x	-5	6	10	-9	0	-1
CCc1ccc(NC(=O)CSc2nc3ccccc3nc2N2CCCC2)cc1	39	i	7	0	10	6	-1	-9
CC(C)C(C(=O)NC1CCCCC1)N(CC1CCCO1)C(=O)CNS(=O)(=O)c1ccc(F)cc1 (centres undefined)	1	i	x	3	-3	-9	-4	-2
Oc1ccc(CN2CCN(c3ncccn3)CC2)cc1	-8	i	-24	6	11	-15	0	3
CC(C)CN1C(=O)c2ccc(C(=O)Nc3ccncc3)cc2C1=O	2	i	x	-11	-7	-11	6	-18
COc1ccc(C2CC2/C(C)=N/OC(=O)C2CC2)cc1 (centres undefined)	-6	i	-13	-1	-7	-7	1	-1
COc1ccc(N2CCN(C(=O)COC(=O)CCOc3cc(C)ccc3C)CC2)cc1	3	i	12	x	x	-12	3	-1
Cc1cc(C)cc(CC(=O)N2CCC2(C)C(=O)NS(=O)(=O)c2ccc(Br)cc2)c1 (centres undefined)	x	x	14	x	x	-3	1	2
Cc1cn([C@H]2C[C@H](O)[C@@H](CNC(=O)CNC(=O)CN)O2)c(=O)[nH]c1=O	x	x	3	x	x	-7	0	5
CC(=O)N1c2ccc(S(=O)(=O)N3CCC(C(=O)NCc4ccccc4Cl)CC3)cc2CC1C (centres undefined)	-16	i	16	x	x	0	-2	-7
COc1ccccc1N(CC(=O)Nc1ccccc1C(F)(F)F)S(=O)(=O)c1cccs1	-3	x	x	x	x	-2	2	-6
CC1CCCN(C(=O)c2ccc(S(=O)(=O)N3CCC(c4nc5ccccc5s4)CC3)cc2)C1 (centres undefined)	25	i	68*	x	x	-7	0	-21
COc1ccc(CCNC(=O)C(=O)N/N=C/c2cccs2)cc1OC	-7	i	5	6	-3	-15	0	4
CC(C)n1cc(/C=C2/NC(=O)N(c3cccc(Cl)c3)C2=O)c2ccccc21	54	i	-218	7	9	18	-34	-23
NC(=O)C1CCN(c2nc(-c3ccccc3C(F)(F)F)cs2)CC1	-14	x	-46	x	x	-8	7	2
COC(=O)C1CN(C(=O)COc2cc(C)c(Cl)c(C)c2)c2ccccc2O1 (centres undefined)	-16	i	3	-5	-2	-9	-4	-2
O=C(Nc1ccccc1Oc1ccccc1)c1cccs1	4	i	-3	1	-4	6	-1	-1
Cc1cc(OC(C)C(=O)NCCc2c[nH]c3ccccc23)c2c(C)cc(=O)oc2c1 (centres undefined)	-3	i	x	-6	-12	6	3	-1
c1coc(-c2nc(-c3ccco3)c(-c3ccco3)nc2-c2ccco2)c1	3	x	-4	85*	94*	-7	-16	-5
CCNc1nc(NCC)n2c(SCC(=O)Nc3ccccc3C(F)(F)F)nnc2n1	-11	i	-224	x	x	6	-2	3
Clc1ccc2nc(-c3cccc(SC4CCCCC4)c3)c(NCc3ccccc3)n2c1	56	i	21	x	x	-11	-3	-5
Cc1ccc(Nc2nnc(SCC(=O)NCCN3C(=O)CSC3=O)s2)cc1C	9	i	-13	-3	121*	-23	-4	1	eIF4H FP inh retest=36;PABP polyA inh retest=63*
O=C(CCc1c[nH]c2ccccc12)N1CCN(c2ccc(F)cc2)CC1	7	i	4	2	-4	-5	5	0
O=C(NCCc1ccc(C(F)(F)F)cc1)C1CC(=O)N(Cc2ccccc2)C1 (centres undefined)	x	x	6	x	x	-11	-3	0
CCOc1ccc(NC(=NCc2ccc3c(c2)OCO3)SC2CC(=O)N(c3ccc(C(=O)O)cc3)C2=O)cc1 (centres undefined)	-8	i	-8	-4	9	x	1	-11
COc1ccccc1CC(=O)Nc1ccc2c(C)cc(=O)oc2c1	-9	+	-12	-10	-3	14	-1	-3
COc1cc(CNc2ccc(N3CCOCC3)cc2)cc(Br)c1OC	-4	i	4	-5	-10	x	12	2
CC(Sc1ccccn1)C(=O)Nc1ccc2c(c1)OCO2 (centres undefined)	-3	x	-13	x	x	-4	-1	3
Cc1cccc2c1OCC/C2=N\NC(=O)COc1ccccc1	2	i	x	5	4	x	0	1
CC1(C(=O)NS(=O)(=O)C2CC2)CCCN(C(=O)COCc2ccccc2)C1 (centres undefined)	x	x	-10	x	x	-2	-1	3
CCCCN(C(=O)CNC(=O)c1ccco1)C(C(=O)NC1CCCCC1)c1cccnc1 (centres undefined)	-18	i	10	-7	0	-23	1	3

The final two compounds of the section before lead into the next.
SMILES	CSC inhib	Rce1 inhib	HIV Env fusion	eIF4H FP inh	PABP polyA inh	UUG fidelity	MT1-MMP act inh	MT1-MMP act inh RFP	others
CC1(C(=O)NS(=O)(=O)C2CC2)CCCN(C(=O)COCc2ccccc2)C1 (centres undefined)	x	x	-10	x	x	-2	-1	3
CCCCN(C(=O)CNC(=O)c1ccco1)C(C(=O)NC1CCCCC1)c1cccnc1 (centres undefined)	-18	i	10	-7	0	-23	1	3
O=C(COc1ccc(F)cc1)Nc1ccc2c(c1)OCCO2	-11	i	-111	-9	-2	-3	3	-1
CCCNC(=O)COc1cccc(C(=O)NCc2ccccc2)c1	-1	i	-5	11	-6	x	-2	1
CC(C)C(=O)N(Cc1cc(=O)[nH]c2ccccc12)c1ccccc1	-12	i	x	-3	-6	-6	1	0
COc1ccc(C)cc1NC(=O)c1ccc(-c2ccc(C(C)=O)cc2)o1	40	i	x	-5	-2	x	-2	0
COCCN=C1OC(=O)N2C(=O)C3=C4[C@@H](C[C@H]5C(=O)N(c6ccccc6)C(=O)[C@H]5[C@H]4[C@@]12Cc1ccccc1)[C@H]1C(=O)N(c2ccccc2)C(=O)[C@H]1[C@H]3C	-2	i	-37	-1	3	-23	-9	-1
COc1ccc(C(=O)Nc2ccc(NC(=O)Cc3ccccc3)cn2)cc1	4	i	10	-7	-4	-9	2	1
CCCCc1nnc(NC(=O)C2CC(=O)N(c3ccc4c(c3)OCCO4)C2)s1 (centres undefined)	12	i	-4	8	10	x	9	6
N#CC1=C(SCC(=O)Nc2ccccc2)NC(=O)CC1c1ccc(O)cc1 (centres undefined)	-6	i	-6	-4	7	-16	-2	-7
CC(=O)Nc1ccc(OCC(=O)NCCc2ccc(Cl)cc2)cc1	-4	i	5	5	-6	2	7	7
Cc1ccc(-n2cccn2)c(CN2CCCC(C(=O)c3ccc4c(c3)OCO4)C2)c1 (centres undefined)	-2	i	-2	3	-1	x	3	6
Cc1nc(N2CCC(C)CC2)c2c(C)c(C(=O)Nc3ccc(C(F)(F)F)cc3)sc2n1	30	i	4	-2	-12	x	-1	-4
CCOC(=O)c1cc2c(=O)c3cc(C)ccc3oc2nc1C	8	i	x	2	1	x	1	5
COc1ccc(C(=O)c2coc3ccc(O)c(CN4CCCC4)c23)cc1	16	i	-14	-2	4	-5	1	2
Nc1nc(NCc2cccs2)nn1-c1ccccc1	2	i	-53	x	x	-22	6	4
CCOC(=O)c1c(C)[nH]c(C(=O)CSc2nc3ccccc3o2)c1C	-8	i	-41	-5	-7	-15	-2	0
Cc1cc(C)c(C)c(S(=O)(=O)NCc2ccco2)c1C	-6	i	x	-2	8	x	x	x
COc1ccc(NC(=O)CNC(=O)Cn2c(C)cc3ccccc3c2=O)c(OC)c1	-18	i	7	-10	12	x	-1	1
O=C(NCc1cccnc1)c1ccc(COc2ccc3c(c2)CCC3)o1	8	i	x	4	12	-15	10	-7
Cc1ccc(S(=O)(=O)NC(Cc2ccccc2)C(=O)NN)cc1 (centres undefined)	-4	i	-2	-3	-3	27	-1	1
CCOC(=O)C1=C(CS(=O)(=O)c2ccc(C)c(C)c2)NC(=O)NC1c1ccc(O)cc1 (centres undefined)	-11	i	6	8	-7	x	-1	3
COC(=O)Cn1cnc2c(oc3ccccc32)c1=O	-16	i	x	9	-2	-14	-3	4
O=C(Nc1nc(-c2ccc(F)c(F)c2)cs1)C1=COCCO1	17	x	47	x	x	-10	4	-2
CC1(C)Cc2c(sc3c2C2=NCCN2C=N3)CS1	-10	i	x	-10	3	x	4	3
CCN(CC)c1ccc(NC(=O)CSc2nnc3nc(C)cc(C)n23)cc1	-3	i	x	-8	-4	x	-1	-1
O=C(CN1CCN(S(=O)(=O)c2ccc(Cl)cc2)CC1)NCC1(N2CCOCC2)CCCCC1	-6	x	-55	x	x	-13	-3	-4
O=C(O)c1cccc(OS(=O)(=O)c2cc(Br)ccc2Br)c1	1	x	-3	x	x	2	-3	2
COc1ccc(C(CC(=O)Nc2ccccc2OC)n2cccc2)cc1 (centres undefined)	-2	i	-40	-2	4	x	-5	-6
O=C(NCCc1cccs1)c1ccc(CS(=O)Cc2ccc(Cl)cc2)o1 (centres undefined)	-2	i	2	9	1	3	3	3
COc1ccc2c(Cl)c(C(=O)N/N=C/c3c(C)[nH]c4ccccc34)sc2c1	53	i	-48	u	-3	-19	3	3
CC1(C)C2CCC1(CS(=O)(=O)Nc1cccc(S(N)(=O)=O)c1)C(=O)C2 (centres undefined)	-5	i	2	0	2	-1	4	3
COc1ccc(-c2n[nH]c(=S)n2/N=C/C=C/c2ccccc2OC)cc1	36	i	20	13	-16	-3	5	4
O=C(CNC(=O)c1ccco1)N/N=C/c1ccc(O)cc1O	-1	i	-2	9	8	2	2	3
CC1CCCN(CCOCCSc2ccccc2)C1 (centres undefined)	48	i	-20	6	0	x	3	5
Cc1ccc(S(=O)(=O)Nc2cc(-c3ccccc3)nn2C)cc1Cl	13	i	22	-3	8	-15	-1	1
COc1ccc(-c2nc(CSCC(=O)NC3CCCc4ccccc43)c(C)o2)cc1 (centres undefined)	34	i	20	-1	-6	-8	0	3
Cc1ccc(-n2c(=S)[nH]c3c(oc4ccccc43)c2=O)cc1	-18	i	-10	-4	7	x	3	0
CCCCCn1c(Sc2ccccc2)nc2c1c(=O)[nH]c(=O)n2C	-3	i	25	5	4	19	4	-2

Already shown: two of the compounds above.
SMILES	CSC inhib	Rce1 inhib	HIV Env fusion	eIF4H FP inh	PABP polyA inh	UUG fidelity	MT1-MMP act inh	MT1-MMP act inh RFP	others
COC(=O)Cn1cnc2c(oc3ccccc32)c1=O	-16	i	x	9	-2	-14	-3	4
O=C(Nc1nc(-c2ccc(F)c(F)c2)cs1)C1=COCCO1	17	x	47	x	x	-10	4	-2
